CtBP-E1A inh = blocks the CtBP interaction with E1A | AlphaScreen GST-E1A/His-CtBP binding, 1536-well; hits give low values; control for the full effect not named in the record | activity change, % (concentration not given with the values) | 340,000 tested, 0.49% active | AID 651724; in the data active means activity change below about -65%; inconclusive means about -30% to -65%; inactive means above about -30%; note: % is set by controls: 0 for no effect and ±100 for the full control effect
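In 5 uL wells, 23 nL compound meets equimolar GST-E1A and His-CtBP (5X stock 125 nM each) for 2 h, 37 °C. Beads (5X, 50 ug/mL) then 1 h, 37 °C, dark.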
D2 agonist = human D2 receptor agonism in beta-arrestin assay. 360,000 tested, 0.084% active. activation, % (no concentration beside the values). DiscoveRx PathHunter D2 beta-arrestin, luminescence, 90 min; 100% = 57 uM dopamine signal. AID 624465. P14416; in the data active = activation above about 40%; inconclusive = about 15% to 40%; inactive = below about 15%; note: compound concentration not given in the record; the text of the record calls up to 30% inactive
Target sequence (P14416 whole entry, looked up): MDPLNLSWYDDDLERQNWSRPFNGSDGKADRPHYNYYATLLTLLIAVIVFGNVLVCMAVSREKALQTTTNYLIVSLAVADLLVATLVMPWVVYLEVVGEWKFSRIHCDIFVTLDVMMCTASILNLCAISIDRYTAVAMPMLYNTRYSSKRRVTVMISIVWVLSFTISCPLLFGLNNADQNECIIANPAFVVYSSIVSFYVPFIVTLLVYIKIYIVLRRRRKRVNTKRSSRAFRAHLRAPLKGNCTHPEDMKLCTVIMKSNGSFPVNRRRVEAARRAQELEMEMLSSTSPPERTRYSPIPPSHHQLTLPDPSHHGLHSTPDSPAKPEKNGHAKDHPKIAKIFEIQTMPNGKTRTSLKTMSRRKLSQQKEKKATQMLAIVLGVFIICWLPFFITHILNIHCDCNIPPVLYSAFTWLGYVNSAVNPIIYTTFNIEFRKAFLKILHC
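DiscoveRx PathHunter D2 beta-arrestin cells (2,100/well) attached overnight, then compound-stimulated 90 min at 37 C in HBSS/10 mM HEPES/0.1% Tween-20 buffer; beta-galactosidase complementation read by luminescence after 1 h at ambient temperature. Dopamine 57 uM final (EC100) as control.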
TRPML1 inh = human mucolipin-1 channel inhibition; Q9GZU1; TRPML1-inducible cells, Ca2+ dye fluorescence, FDSS; hits give low values; inhibition of EC80 agonist-evoked calcium signal; activity change, negative = inhibition, % (concentration not given with the values); 390,000 tested, 0.02% active; AID 624415; in the data active means activity change below about -50%; inconclusive means about -30% to -50%; inactive means above about -30%;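 note: stimulus is agonist 54-4 at its EC80 concentration; % is set by controls: 0 for no effect and ±100 for the full control effect; compound concentration not given in the record; the text of the record puts the active cut at -80%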
Target sequence (Q9GZU1 whole entry, looked up): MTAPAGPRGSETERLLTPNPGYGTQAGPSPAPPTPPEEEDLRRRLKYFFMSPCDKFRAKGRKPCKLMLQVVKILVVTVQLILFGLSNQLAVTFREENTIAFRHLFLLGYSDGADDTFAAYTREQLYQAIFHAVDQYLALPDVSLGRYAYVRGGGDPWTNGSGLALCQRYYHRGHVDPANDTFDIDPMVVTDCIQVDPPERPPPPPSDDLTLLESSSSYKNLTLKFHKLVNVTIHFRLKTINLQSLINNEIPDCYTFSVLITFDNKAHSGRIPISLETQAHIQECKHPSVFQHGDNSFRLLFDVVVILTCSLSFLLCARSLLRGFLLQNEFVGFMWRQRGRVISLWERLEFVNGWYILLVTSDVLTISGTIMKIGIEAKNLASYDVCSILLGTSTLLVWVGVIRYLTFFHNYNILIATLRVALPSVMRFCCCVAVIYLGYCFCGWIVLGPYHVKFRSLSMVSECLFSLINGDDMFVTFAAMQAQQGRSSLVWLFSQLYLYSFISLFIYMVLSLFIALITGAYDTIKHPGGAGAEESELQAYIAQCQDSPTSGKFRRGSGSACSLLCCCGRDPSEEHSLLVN
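Calcium fluorescence in TRPML1-DL cells induced overnight with Tet: a 110 s read after compound pin addition, then a 110 s antagonist read after challenge with 54-4 at 4 uM final (EC80).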
TRPML1 ag = agonists of human TRPML1 channel | Q9GZU1 | TRPML1-expressing cells, Ca2+ dye fluorescence, FDSS; host cell line not named in the record; reference of the full effect not given here | activation, % (no concentration beside the values) | 410,000 tested, 0.12% active | AID 624414; in the data active = activation above about 50%; inconclusive = about 30% to 50%; inactive = below about 30%; note: 0% is about no effect; the text of the record puts the active cut at 80%
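Agonist activity was taken from a 110 s kinetic Ca2+ dye read on the FDSS after pinning compounds onto TRPML1-DL cells. The cells were seeded at 1,500/well with Tet inducer, incubated about 16 h, then dye-loaded at room temperature.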
Six1-Eya2 inh = blocks human Six1 binding to Eya2 | Q15475+O00167 | activity change, % (no concentration beside the values) | 360,000 tested, 0.56% active | AlphaScreen GST-Six1/His-Eya2 binding, biochemical; hits give low values; control for the full effect not named in the record | AID 651725; in the data active = activity change below about -65%; inconclusive = about -30% to -65%; inactive = above about -30%; note: % is set by controls: 0 for no effect and ±100 for the full control effect; compound concentration not given in the record
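Compounds are tested against tagged Six1 and Eya2 proteins bridged by glutathione donor and nickel acceptor beads; after a one-hour incubation at 37 °C without light, AlphaScreen emission is recorded.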
PINK1 modulator = PINK1 expression modulation; PINK1 immunofluorescence, high-content cytometry, 24 h; Potency, µM (series often up to 76.6 µM), for inactives: at the highest dose activation (PINK1 increase), most hits filed as activators; 410,000 tested, 0.2% active; AID 624263; active = well fitted activation curve with a large enough effect; inconclusive = small, poorly fitted or top-dose-only effect; inactive = flat fitted curve, though single readings scatter; cell line not stated here;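 note: potency is the fitted concentration of half-maximal effect; % of control where 0% means no effect; nearly all actives have a fitted effect of over 65% in size; a mitochondrial uncoupler was the plate control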
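Stable cell line, 250 cells/well, 12 h attachment; compounds pinned at 5 concentrations, 24 h; CCCP control. Fixed with nuclear dye, primary antibodies 12 h at 10 degrees C, secondary plus cell stain; laser-scanning cytometer read.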
* marks the source's active call; other numbers are inactive results; ? = inconclusive; . = no result given; & = joins results of further samples; [ ] = another dose, or the depositor's remark.

SMILES	CtBP-E1A inh	D2 agonist	TRPML1 inh	TRPML1 ag	Six1-Eya2 inh	PINK1 modulator
CCOC(=O)C1CCCCN1C(=O)/C(=C/c1ccc(OC)cc1)c1ccc(OC)c(OC)c1 (stereo not given)	0	5.1	17	-0.5	-3	2.0%
COc1ccc(N(C)S(=O)(=O)c2cccc(C(=O)Nc3cc(OC)ccc3OC)c2)cc1	-10	6.0	37	0.4	-12	0.1%
CCOc1ccc(NC(=O)CN2C(=O)C(c3ccccc3)=NC23CCCCCC3)cc1	.	.	-17	0.8	.	1.5%
COc1ccccc1NS(=O)(=O)c1ccc(C)c(NC(=O)c2c(C)noc2C)c1	.	-2.1	30	-0.4	-9	4.8%
CCc1ccc(Nc2cc(C)nc3nc(C)nn23)cc1	-7	0.0	47	2.2	-1	-0.1%
CCOc1ccc(-n2c(-c3ccc(C)cc3)nc3c(cnn3-c3ccccc3)c2=O)cc1	.	.	2	1.1	.	0.1%
O=C(Nc1cccc2ccccc12)NC1Cc2ccccc2C1	-9	0.0	2	1.3	6	13%
COC(=O)c1c(NC(=O)C2c3ccccc3Oc3ccccc32)sc2c1CCC(C(C)(C)C)C2 (stereo not given)	.	.	-20	-0.4	.	2.2%
O=C(CSc1nc(-c2ccccc2F)nc2cc(=O)[nH]n12)Nc1cccc(C(F)(F)F)c1	.	.	-1	-0.2	.	-1.0%
CC(C)c1ccc(OCC(=O)Nc2cccc3c2CCCC3)cc1	41	-2.0	6	-0.5	26	0.1%

Compound profiles (already shown):
Record of CCOC(=O)C1CCCCN1C(=O)/C(=C/c1ccc(OC)cc1)c1ccc(OC)c(OC)c1 (stereo not given) : CtBP-E1A inh = 0; D2 agonist = 5.1; TRPML1 inh = 17; TRPML1 ag = -0.5; Six1-Eya2 inh = -3; PINK1 modulator = 2.0%
Record of O=C(CSc1nc(-c2ccccc2F)nc2cc(=O)[nH]n12)Nc1cccc(C(F)(F)F)c1 : CtBP-E1A inh = .; D2 agonist = .; TRPML1 inh = -1; TRPML1 ag = -0.2; Six1-Eya2 inh = .; PINK1 modulator = -1.0%
Record of CCOc1ccc(-n2c(-c3ccc(C)cc3)nc3c(cnn3-c3ccccc3)c2=O)cc1 : CtBP-E1A inh = .; D2 agonist = .; TRPML1 inh = 2; TRPML1 ag = 1.1; Six1-Eya2 inh = .; PINK1 modulator = 0.1%

Other results follow.
SMILES	CtBP-E1A inh	D2 agonist	TRPML1 inh	TRPML1 ag	Six1-Eya2 inh	PINK1 modulator
CCOC(=O)C1C(=O)OC(C)(C)C1C(C)C(=O)c1ccc(C)cc1 (stereo not given)	2	-1.5	6	-0.4	3	2.7%[38.3 µM]
Cc1cccc(NC(=O)CSCC(=O)Nc2ccc(N3CCOCC3)cc2N2CCOCC2)c1	.	-2.2	-4	-0.4	-4	-0.4%
COc1ccc(C(=O)C2CCCN(C(=O)c3cc4nc(C)cc(C)n4n3)C2)cc1F (stereo not given)	0	-0.4	-12	-0.3	1	-0.5%
Cn1nnc(NC(=S)NC(=O)c2ccccc2)n1	4	-15	50	-0.1	-7	0.9%
Cc1cc(O)ccc1Nc1cc(-c2cccc(N)c2)ncn1	0	-1.8	21	-0.1	5	-0.2%
CC(C)On1c(SCC(=O)N(C)C)nc2ccccc2c1=O	.	-1.3	32	2.4	5	1.7%
C#CCNC(=O)C1=C[C@@H](c2ccc(C#C)cc2)C[C@@H](OCc2ccc(CO)cc2)O1	4	4.3	4	-0.8	-2	-1.0%
COc1cc2c3c(c1)c(C1=NC(=S)NC1=O)c(O)n3C(C)(C)C=C2C	-7	-2.2	41	-0.8	-8	-10%[38.3 µM]
Cc1cc(C)c(-c2c(O)c3cccnc3n(C)c2=O)c(C)c1	8	0.6	-6	0.2	7	0.0%
Nc1nc2ncc(-c3ccsc3)c(N)n2n1	-1	-5.1	23	0.7	10	-0.1%
CCOC(=O)c1ccn(-c2nc(-c3ccco3)cc(C(F)(F)F)n2)n1	-8	1.5	8	-1.1	-11	1.4%
CCOc1ccc(CCNC(=O)c2c(C)oc3ncn(C)c(=O)c23)cc1	.	.	-18	0.1	.	5.5%
Cc1ccccc1NC(=O)c1ccc(-n2cncn2)nc1	2	-2.1	4	0.2	-13	1.6%[38.3 µM]
C[C@H](O)[C@@H]1C(=O)N2CCc3c([nH]c4ccccc34)[C@@H]2C[C@@H]1N(C)C(=O)Nc1cc(Cl)cc(Cl)c1	-7	-2.4	12	-0.3	-27	?
CCOC(=O)C1=C(C)NC(SC(C)=O)=NC1c1ccc(OC(C)=O)c(OC)c1 (stereo not given)	-3	-1.6	6	-0.1	0	4.9%
COc1ccc(CCNC(=O)c2nc(SCc3ccccc3F)ncc2Cl)cc1OC	.	.	0	0.8	.	-0.8%
CCc1cc(C(=O)NNC(=S)Nc2cc(C)ccc2C)cs1	3	-6.2	11	2.1	0	-2.0%
O=S(=O)(c1c(F)cccc1F)N(CCc1ccc(F)cc1)C[C@@H](O)COCc1ccccc1	-15	-5.1	28	2.4	10	13%
Nc1cc(Cl)ccc1Oc1ccccc1	3	0.4	36	1.3	11	0.6%[38.3 µM]
C=CCOC(=O)c1ccc(N2CCN(c3ccccc3)CC2)nc1	-5	1.3	8	2.7	1	1.3%
Cc1onc(-c2ccccc2)c1C(=O)NCCN1CCOCC1	5	-0.7	0	0.5	5	-0.4%
CC(C)(C)NC(=O)COC(=O)c1ccc(NC(=O)CC#N)cc1	0	12	-4	-0.8	4	2.3%
C#CCNC(=O)C1CCN(c2cc(C)nc(-c3ccccc3)n2)CC1	11	-0.8	-10	2.9	3	1.5%
COc1cccc(CN2CCNC(=O)C2CC(=O)NCc2cn3cccc(C)c3n2)c1OC (stereo not given)	1	-7.4	-4	0.1	-5	0.2%
Clc1ccc(COn2ccnc2)cc1Cl	6	-18	7	4.3	3	0.3%
COc1ccc(/C=N/NC(=O)c2ccccc2F)cc1CN1CCN(c2ccc(F)cc2)CC1	-16	2.3	-3	-0.3	-27	4.5%
CCOC(=O)C1=CCN(S(=O)(=O)c2ccccc2Br)C1c1ccccc1 (stereo not given)	5	-1.1	.	0.3	3	0.4%
O=C(C1CC1)N1CCN=C1SCc1ccc(F)cc1	1	0.0	2	0.7	7	0.1%
COc1ccc(S(=O)(=O)N2CCC(c3cc(-c4cccc5ccccc45)n[nH]3)CC2)cc1	19	-0.7	2	0.6	2	0.3%
NNC(=O)c1ccc(OCC2CC(c3ccc(Cl)cc3)=NO2)cc1 (stereo not given)	-12	-1.5	6	0.0	-9	12%

3 compounds out of the list, arranged by length of the SMILES, ascending.
SMILES	CtBP-E1A inh	D2 agonist	TRPML1 inh	TRPML1 ag	Six1-Eya2 inh	PINK1 modulator
CC(C)(C)NC(=O)COC(=O)c1ccc(NC(=O)CC#N)cc1	0	12	-4	-0.8	4	2.3%
COc1cccc(CN2CCNC(=O)C2CC(=O)NCc2cn3cccc(C)c3n2)c1OC (stereo not given)	1	-7.4	-4	0.1	-5	0.2%
COc1ccc(S(=O)(=O)N2CCC(c3cc(-c4cccc5ccccc45)n[nH]3)CC2)cc1	19	-0.7	2	0.6	2	0.3%

Next part.
SMILES	CtBP-E1A inh	D2 agonist	TRPML1 inh	TRPML1 ag	Six1-Eya2 inh	PINK1 modulator
COc1ccccc1OCC(=O)NCC(c1ccc(Cl)cc1)N1CCCCC1 (stereo not given)	.	.	14	-0.4	.	-1.0%
O=C(NCCCN1CCOCC1)c1ccc2c(c1)N(Cc1ccccc1)C(=O)c1ccccc1S2	-5	-6.2	6&2	0.2&1.7	-7	-0.4%&1.2%
COc1ccc(N(CC(=O)N2CCN(Cc3ccccc3)CC2)S(C)(=O)=O)cc1OC	.	-2.4	.	.	2	-0.4%
COc1ccc(S(=O)(=O)N(C)CC(=O)NCc2ccco2)cc1Cl	-4	-3.4	38	0.9	-9	1.0%
O=C(NCC(F)(F)F)c1nn(Cc2ccccc2)c(=O)c2ccccc12	9	-3.2	25	-0.2	12	1.3%
O=C(c1ccco1)N1CCN(S(=O)(=O)c2cc(Cl)ccc2Cl)CC1	0	-2.9	7	0.5	9	-1.1%
CC(=O)Nc1nnc(SCC(=O)NC2CCCC2)s1	-1	-3.7	9	0.1	1	1.3%
O=C(CN1c2ccccc2Sc2ccccc21)N/N=C/c1ccccc1	5	-7.0	-4	-0.2	-24	13%
CSCC[C@H](NC(=O)NCCc1ccc(F)cc1)C(=O)O	-1	0.5	10	-0.2	9	-0.5%
Cc1ccc(-c2nc(CSCC(=O)N3CCOCC3)c(C)o2)cc1	4	-0.5	-1	0.9	0	0.1%
O=C(C1CCCO1)N1CCN(C(=S)Nc2ccccc2F)CC1 (stereo not given)	0	-3.6	9	0.4	-2	1.3%
CC(C)CCNC(=O)C1CC(=O)N(CCc2ccccc2)C1 (stereo not given)	9	-1.8	3	0.3	3	1.0%
Cc1sc(NC(=O)CN2C(=O)NC3(CCCC3)C2=O)nc1-c1ccc(F)cc1	-1	-1.1	-7	0.7	-12	1.1%
COc1ccccc1CNS(=O)(=O)c1ccc(N2CCCC2)cc1Br	-5	0.0	5	17	-3	0.9%
O=C(c1cnc2n(c1=O)CCS2)N1CCN(C(c2ccccc2)c2ccc(Cl)cc2)CC1 (stereo not given)	1	2.6	-5	0.2	-8	-0.4%
O=C(Oc1cc(Cl)cc(Cl)c1)c1cnc2n(c1=O)CCS2	-1	0.9	-3	-1.0	-9	2.6%
CC(C)NC(=O)Nc1ccc2c(c1)C(=O)N([C@H](C)CO)C[C@H](C)[C@@H](CN(C)C(=O)NC(C)C)O2	0	-3.4	-8	0.7	5	-1.0%
O=[N+]([O-])c1ccc(N/N=C/c2ccc[nH]2)cc1	-17	-8.4	13	15	-28	?
CCCCCC(=O)N(Cc1ccccc1)c1c(N)n(CCOC)c(=O)[nH]c1=O	2	-1.0	31	-0.1	9	-0.8%
COc1cc(OC)c2c(-c3cccc(-c4ccc(OC)c(OC)c4)c3)cc(=O)oc2c1	-13	-1.3	46	0.0	1	1.5%

The order is random (roughly 1% active in at least one column).
